VACV E9 pol inh = blocks vaccinia virus processive DNA synthesis; in vitro processive DNA synthesis, absorbance read-out; stronger effect = lower value; some inactives read as strong as hits; normalized absorbance, % (concentration not given with the values); actives 0.94% (n = 46,000);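 active = replicate mean up to 90% and picked by the depositor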;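 note: 100% = median of the test wells of a plate; 100 nL library stock went into each well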
* hit, by the source's call.

molecule | VACV E9 pol inh
CC(C)(CN1CCC(Cc2ccccc2)CC1)NS(=O)(=O)c1ccccc1 | 102.9
CC1(C)CC(=O)C(C(=S)Nc2ccccc2)=C(NCc2ccccc2)C1 | 100.2
O=C(c1sc2ccccc2c1Cl)N1CCCC1 | 98.6
COC(=O)c1ccccc1NC(=O)c1ccc(-n2nc(C(F)(F)F)c3c2-c2ccoc2CC3)cc1 | 92.5
O=S(=O)(CCSc1nccc(-c2ccc(Cl)cc2)n1)c1ccc(Cl)cc1 | 106.2
O=C(CSc1nc2c(c(=O)n1-c1ccccc1)SCC2)NC1CCCCC1 | 97.0
O=c1cc(C(F)(F)F)nc(N2CCCC2)[nH]1 | 122.6
CC(C)c1nc(=S)c2cc(Br)cc(Br)c2[nH]1 | 99.9
CCN(CC)S(=O)(=O)c1ccc(NC(=O)c2cc(-c3cccs3)nc3ccccc23)cc1 | 103.3
C=CCn1c(C(C)NC(=O)c2ccccc2)nc2ccccc21 (stereo not given) | 101.0
CCc1cc(C(N)=S)ccn1 | 101.2
COC(=O)c1cc2oc(C)cc2n1CC(=O)c1ccccc1 | 106.0
CCOC(=O)C1CCN(C(=O)c2n[nH]c(=O)c3ccccc23)CC1 | 97.0
N#CCCn1cc(CO)c(-c2ccc(F)cc2)n1 | 93.3
N#Cc1c(N2C(=O)CCC2=O)sc2c1CCCC2 | 95.3
O=C1NC(c2ccccn2)Nc2sc3c(c21)CCCC3 (stereo not given) | 99.0
CCOc1cc2oc(=O)c3c(c2cc1Cl)CCC3 | 101.2
CCC(=O)NCCc1nc2ccccc2n1Cc1ccccc1 | 90.9
CC(NC(=O)c1cccc2c1C(=O)N(Cc1cccnc1)C2)c1cccs1 (stereo not given) | 86.3
O=C1S/C(=C\c2ccccc2)C(=O)N1c1ccc(O)cc1 | 99.9
COc1ccc(CNC(=S)NCCO)cc1 | 100.2
CCc1ccc(-n2c(C)ccc2C)cc1 | 102.1
O=C(O)CCN=Cc1c(O)c2ccccc2oc1=O | 99.6
O=C(COc1ncnc2ccccc12)NCC1CCCCC1 | 101.9
CCCc1cc(-n2cnc3ccccc32)n2c(nc3ccccc32)c1C#N | 100.4
S=C1SCN(CCN2CCOCC2)CN1Cc1ccccc1 | 100.6
Cc1ccc(-c2csc(NC(=O)c3coc4ccccc4c3=O)n2)o1 | 100.9
Cc1ccn2cc(-c3cccs3)cc2c1 | 82.2
CCOc1cccc2cc(C(N)=O)c(=Nc3ccc(F)cc3)oc12 | 100.0
CC1=C(C)CC2C(=O)N(c3ccc(N4CCOCC4)cc3)C(=O)C2C1 (stereo not given) | 88.9
O=C1CSC(c2cn(-c3ccccc3)nc2-c2ccccc2)N1CCCl (stereo not given) | 103.2
CCOc1ccc(N2C(=O)CC(N(Cc3ccc(Cl)cc3)C(=O)c3ccc(Cl)cc3)C2=O)cc1 (stereo not given) | 100.2
Cc1cccc(NC(=O)N2CCOc3ccc(Cl)cc32)c1 | 94.7
CCC(SC1=NC(=O)C(c2ccccc2)C(=O)N1)C(=O)Nc1sc2c(c1C#N)CCCC2 (stereo not given) | 98.3
O=C(Nc1cccc(Cl)c1Cl)N1CCCN(Cc2ccc(F)cc2)CC1 | 109.0
CC(C)CCNC(=O)Cc1ccc(-n2c(=S)[nH]c3ccccc3c2=O)cc1 | 87.2
Cc1cc(C)c(C(=O)N2Cc3ccccc3NC2=S)c(C)c1 | 100.7
O=C(NC1CC1)c1cccc(C(F)(F)F)c1 | 99.0
Cc1cc(Nc2ncc(Cl)cc2Cl)n(-c2ccccn2)n1 | 102.2
O=C(O)c1cc(-c2cccs2)nn1-c1ccccc1 | 82.4
CCc1cc(C(=O)Cc2nc(C)cs2)c(O)cc1O | 100.2
O=C(Nc1ccc(-c2ccccc2)cc1)c1ccc(Br)o1 | 98.1
COc1ccccc1C(=O)Nc1nnc(-c2ccccc2Cl)s1 | 99.2
COC(=O)c1ccc(S(=O)(=O)NC(C)(C)C)n1C | 105.4
COc1ccc(NC(=O)CC2SC(=Nc3ccccc3)N(c3ccccc3)C2=O)cc1 (stereo not given) | 100.0
C/C1=C\C(O)C(C(C)C)C(O)C/C(C)=C/CC1 (stereo not given) | 100.5
COC(=O)Cn1c(Cc2ccccc2)nc2ccccc21 | 103.0
CN(C)c1ccc(Nc2nc(-c3ccccc3)c(C(=O)c3ccc(F)cc3)s2)cc1 | 106.9
CCCN1C(=O)/C(=C2\SC(=S)NC2=O)c2cc(Br)ccc21 | 115.5
Cc1ccc(OCC(=O)n2c(SCc3ccc(F)cc3)nc3ccccc32)cc1 | 100.0

(more compounds)
molecule | VACV E9 pol inh
COC(=O)c1c(C)c(=O)[nH]c2ccccc12 | 100.2
O=C(CCN1C(=O)c2ccccc2C1=O)NCc1ccco1 | 99.2
CN(C(=O)c1ccn[nH]1)C1CC(C)(C)N(C)C(C)(C)C1 | 91.9
O=C(/C=C/c1ccccc1)Nc1cc2c(ccc3ccccc32)oc1=O | 99.7
CC(C)NC(=O)C1COc2ccccc2O1 (stereo not given) | 105.1
CCCCN(C)S(=O)(=O)c1ccc2c(c1)OCCN2C(C)=O | 101.6
O=C(O)/C(=C\c1cccs1)c1ccccc1 | 91.0
CC1CCN(C(=O)CN2N=C(c3ccccc3)CCC2=O)CC1 | 97.0
CC1CCC(NC(=O)Cn2ncn3c(cc4sccc43)c2=O)CC1 (stereo not given) | 105.3
CCc1ccc2occ(CC(=O)Nc3ccc(Cl)cc3)c2c1 | 105.7
COc1cc(/C=N/O)cc(OC)c1OC | 100.8
CN(Cc1cccs1)C(=S)SCc1cccs1 | 100.4
Cc1cc(C)c2nc(NC(=O)c3ccc(C#N)cc3)sc2c1 | 99.4
CCOc1ccc(CCNC(=O)Nc2ccc(C)c(C)c2)cc1OCC | 95.5
Cc1ccc(C(C)(C)C)cc1S(N)(=O)=O | 95.4
CCOC(=O)c1c(CN2CCOCC2)[nH]c(C(=O)OCc2ccccc2)c1C | 100.3
Cc1c(Cl)cccc1NN | 100.5
O=C1CC(c2ccc(F)cc2)CC(O)=C1C=NCCN1CCNCC1 (stereo not given) | 99.6
Cc1ccc(N2C(=O)C3C4C=CC(O4)C3C2=O)cc1 (stereo not given) | 84.3
C=C(C)[C@@H]1[C@H]2OC(=O)[C@@H]1[C@]1(O)C[C@H]3O[C@]34C(=O)O[C@H]2[C@]14C | 100.5

Structural class: the compounds so far containing an aryl methoxy group
molecule | VACV E9 pol inh
COc1ccc(CNC(=S)NCCO)cc1 | 100.2
COc1ccccc1C(=O)Nc1nnc(-c2ccccc2Cl)s1 | 99.2
COc1ccc(NC(=O)CC2SC(=Nc3ccccc3)N(c3ccccc3)C2=O)cc1 (stereo not given) | 100.0
COc1cc(/C=N/O)cc(OC)c1OC | 100.8

(more compounds)
molecule | VACV E9 pol inh
O=C(c1ccco1)N1CCN(C(=O)c2cc(-c3ccc(F)cc3)no2)CC1 | 86.5
O=C(CC(=O)c1ccccc1)Nc1ccc2c(c1)OCCO2 | 101.0
CCOC(=O)C1=C(CN2CCC(C)CC2)NC(=O)NC1c1cccs1 (stereo not given) | 91.7
CN(C)c1ccc(/C=C/C=C2C(=O)c3ccccc3C2=O)cc1 | 99.8
CC(C)(C)C(=O)Cn1nnc(-c2cccc(C(F)(F)F)c2)n1 | 99.7
CCN1CCN(CCCNC(=S)Nc2ccc3nc(N4CCN(C)CC4)cc(C)c3c2)CC1 | 87.0
NCCc1c[nH]c2ccccc12 | 100.1
COC(=O)CCSc1ccc(C(=O)OC)cc1N | 102.6
Cc1ccc(OC(=O)C2c3ccccc3Oc3ccccc32)cc1C | 99.9
CC(O)CNC(=O)C12CC3CC(CC(C3)C1)C2 (stereo not given) | 99.4
Cc1nn(-c2ccccc2)c2[nH]c(=O)cc(C(F)(F)F)c12 | 94.7
COc1ccc(-c2cc(-c3ccccc3)c(C#N)c(S(=O)Cc3ccccc3)n2)cc1 (stereo not given) | 98.7
CNC(=O)c1cc2c(=O)c3ccccc3oc2nc1C(F)(F)F | 105.4
COc1cc(C#N)c2ccc3ccccc3c2c1 | 86.7
CC(C)P(c1ccc(C#N)cc1)C(C)C | 98.6
Cc1cc(C)c2c(=O)n(CC(=O)N3CCCCCC3)sc2n1 | 99.4
O=C(CSc1ccc2nnc(-c3ccccc3)n2n1)N1CCCC1 | 101.2
O=C(O)C1CCN(C(=O)C(F)(F)F)CC1 | 111.9
N#CC1(c2ccc(Cl)cc2)c2ccccc2NN1c1ccccc1 (stereo not given) | 98.1
O=C(Cn1cnc2ccccc2c1=O)Nc1cccc(Cl)c1 | 99.6
NC[C@@H]1O[C@H](O[C@H]2[C@@H](O)[C@H](O[C@@H]3[C@@H](O)[C@H](N)C[C@H](N)[C@H]3O[C@@H]3O[C@H](CO)[C@@H](O)C[C@H]3N)O[C@@H]2CO)[C@H](N)[C@@H](O)[C@@H]1O[C@H]1O[C@H](CO)[C@@H](O)[C@H](O)[C@@H]1O | 100.0
C=CCN1C(=O)/C(=C2\SC(=S)N(CCC)C2=O)c2ccccc21 | 99.9
Cc1nn(-c2ccccc2)c2c1C(C(F)(F)F)(C(F)(F)F)N=C(N(C)C)O2 | 84.4
CCc1nc2sc3c(c2c2nncn12)CCCC3 | 86.8
COc1ccc(CCNC2=NCCS2)cc1 | 102.0
CC(C)c1ccc(S(=O)(=O)N2CCN(C(=O)c3ccco3)CC2)cc1 | 98.0
COc1ccc(OC)c(S(=O)(=O)N2CCc3ccccc3C2)c1 | 101.3
CCN(CCO)CCCC(C)Nc1ccnc2cc(Cl)ccc12 (stereo not given) | 98.9
COC(=O)c1ccc(C)c(NC(=O)c2ccncc2)c1 | 94.0
O=C(O)C(Cc1ccccc1)NS(=O)(=O)c1ccc2[nH]c(=O)c(=O)[nH]c2c1 (stereo not given) | 108.9

5 compounds out of the list, arranged by length of the SMILES, smallest number first:
molecule | VACV E9 pol inh
CC(C)c1nc(=S)c2cc(Br)cc(Br)c2[nH]1 | 99.9
C/C1=C\C(O)C(C(C)C)C(O)C/C(C)=C/CC1 (stereo not given) | 100.5
CCCc1cc(-n2cnc3ccccc32)n2c(nc3ccccc32)c1C#N | 100.4
CCOC(=O)C1CCN(C(=O)c2n[nH]c(=O)c3ccccc23)CC1 | 97.0
Cc1nn(-c2ccccc2)c2c1C(C(F)(F)F)(C(F)(F)F)N=C(N(C)C)O2 | 84.4

Remaining list, next part
molecule | VACV E9 pol inh
CC(C)N(C(=O)CN1C(=O)c2ccccc2S1(=O)=O)c1ccccc1 | 96.3
COc1ccc(S(=O)(=O)N2CCCCCC2)cc1C(=O)O | 98.9
CS(=O)(=O)N1CCC(Cc2ccccc2)CC1 | 100.7
COC(=O)C1=C(Nc2ccc(C)cc2)CC(C)(O)C(C(=O)OC)C1c1ccc(Br)cc1 (stereo not given) | 101.8
CS(=O)(=O)N1CCC(C(=O)NCCN2CCCCCC2)CC1 | 100.5
CS(=O)(=O)C1=NN2C(=N)/C(=C\c3ccco3)C(=O)N=C2S1 | 94.3
CSc1nnc(-c2ccc(Cl)cc2Cl)n1Cc1ccco1 | 97.6
CN(C)C(=O)Oc1ccc(Cl)c2cccnc12 | 99.6
Cc1ccccc1NC(=O)C1CC(O)CN1C(=O)OCc1ccccc1 (stereo not given) | 100.3
CCCNC(=O)C1CC(c2ccc(OC)cc2)=NO1 (stereo not given) | 102.4
COC(=O)C(C)Sc1ncnc2c1oc1ccccc12 (stereo not given) | 98.1
COC(=O)CCc1[nH]c2ccccc2c1Sc1ccccc1 | 94.9
N#CC1=C(SCC(=O)N(c2ccccc2)c2ccccc2)NC(=O)CC1c1ccco1 (stereo not given) | 91.7
CC(C)c1ccc(NC(=S)Nc2cccc(C(F)(F)F)c2)cc1 | 113.6
O=C(NCc1ccc(-c2csnn2)cc1)c1cc(Cl)cc(Cl)c1 | 100.1
COc1cccc(NC(=O)CSc2ncnc3ccccc23)c1 | 97.6
Cc1cc(C)n2nc(CC#N)c(C#N)c2n1 | 106.1
O=C(CCN1CCCC1)c1ccc(-c2ccccc2)cc1 | 88.1
CCOC(=O)c1ccc(N2CCCC2)cc1 | 99.2
CSc1sc(C2=NNC(O)(C(F)(F)F)C2)c2c1C(=O)CCC2(C)C (stereo not given) | 99.5
N#C/C(=C\c1cc(Cl)cc(Cl)c1)c1cccnc1 | 100.3
CC(C)(C)C(=O)NCC12CC3CC(CC(C3)C1)C2 | 99.2
Cc1ccc2c(CC(=O)O)coc2c1 | 103.7
COc1cccc(N=CC2=C3N(CCC2)c2ccccc2C3(C)C)c1 | 100.3
Cn1c2c(c(=O)n(C)c1=O)C(c1ccccc1)C(C#N)=C(N)O2 (stereo not given) | 100.8
CC(=O)N1CCc2cc(NC(=S)NCc3cccs3)ccc21 | 85.7
CC(C)(C)C(=O)Nc1noc2ccccc12 | 101.4
Clc1ccccc1CSc1cnc2ccccc2n1 | 100.2
COC(=O)Nc1sc(-c2ccccc2)nc1-c1ccccc1 | 99.7
Cc1c(Cl)cccc1N1CC(C)(C)C1=O | 110.6
Cn1nccc1Nc1ccc(OC(=O)c2ccnn2C)cc1 | 99.9
O=S1(=O)CCC(NS(=O)(=O)/C=C/c2ccccc2)C1 (stereo not given) | 102.7
CC(C)c1nc2ccccc2n1C(C)C(=O)O (stereo not given) | 104.0
CCCC(C#CCN1CCCCC1)OC(C)=O (stereo not given) | 100.5
CC(C)C(O)(C#CCN1CCCCC1)C(C)C | 100.5
COc1ccc(C(CC(=O)c2ccco2)Sc2cccc3cccnc23)cc1OC (stereo not given) | 101.1
CC(C)CCNC(=O)c1c[nH]c2ccc(S(=O)(=O)N3CCc4ccccc43)cc2c1=O | 104.6
O=C(c1ccc2c(Cl)c3c(nc2c1)CCCC3)N1CC=C(c2ccccc2)CC1 | 90.8

Bioassay records (PubChem BioAssay)

Some of the compounds tested; the hit share may differ from the screen's.
